CBX7 AlphaScr: CBX7 chromodomain binding inhibitors, primary screen, biochemical, AlphaScreen | Chromobox protein homolog 7 (Homo sapiens), O95931 | AlphaScreen His6-CBX7 / biotin-H3K27me3 peptide binding; hits give low values | normalised signal (fraction of DMSO) (no concentration beside the values) | actives 1.1% (n = 66,000); in the data active means normalised signal below about 0.5;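 further: 100 nL library stock added to about 20 µL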
Target sequence (O95931 whole entry, looked up): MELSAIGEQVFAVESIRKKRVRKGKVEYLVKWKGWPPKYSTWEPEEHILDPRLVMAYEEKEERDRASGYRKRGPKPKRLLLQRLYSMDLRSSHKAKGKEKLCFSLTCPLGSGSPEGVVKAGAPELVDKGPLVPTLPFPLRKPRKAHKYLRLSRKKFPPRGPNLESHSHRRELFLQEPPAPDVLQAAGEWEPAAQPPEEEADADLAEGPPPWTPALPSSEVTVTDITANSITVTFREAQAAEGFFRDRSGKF
CBX7 AlphaScr z-score: further read-out of CBX7 AlphaScr, marked with its call; z-score; measured here: z-score of CBX7 signal; some inactives read as strong as hits; reference of the scale not given here;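 same signal on another scale; lower means less binding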
An asterisk follows results filed as active. A portion of the library. The share of hits here may be higher or lower than overall.

SMILES | CBX7 AlphaScr | CBX7 AlphaScr z-score
CC(NC(=O)c1cccc(NC2=NC3CS(=O)(=O)CC3S2)c1)c1ccccc1 (stereo not drawn) | 1.02 | 0.769
COc1ccc(Cl)cc1NC(=O)c1noc2c1CCCCC2 | 1.3 | 1.39
O=C(NCCc1nc2ccccc2n1Cc1c(F)cccc1Cl)c1cccs1 | 1.21 | 1.57
Cc1ccccc1N1C(=O)c2ccc(C(=O)Nc3cccc(C(=O)O)c3)cc2C1=O | 1.02 | 0.582
O=C(NCC1CCCO1)c1ccc2c(=O)n(CCc3ccccc3)c(=O)[nH]c2c1 (stereo not drawn) | 0.975 | -0.619
CCOc1ccc(Nc2oc(COc3ccccc3F)nc2C#N)cc1 | 0.833 | -1.04
CC(C)n1c(-c2c(-c3ccc4ccccc4n3)cnc3ccccc23)nc2ccccc21 | 0.651 | -1.23
Fc1ccc(-c2nnc3ccc(N4CCN(c5ccccc5)CC4)nn23)cc1 | 0.862 | -1.94
Cc1cc(=O)n2[nH]c(-c3cccnc3)nc2n1 | 0.977 | -0.648
CCCN(CCC)S(=O)(=O)c1ccc(NC(=O)c2c(-c3ccccc3)noc2C)cc1 | 0.945 | -1.01
Cc1ccc2nc(-c3ccc(NC(=O)c4ccc(Cl)cc4Cl)cc3)oc2c1 | 0.867 | -2.1
COc1ccc(C(=O)Nc2cc(-c3nc4cc(C(C)C)ccc4o3)ccc2Cl)cc1 | 1.07 | 0.229
O=C(CN1C(=O)COc2ccc(S(=O)(=O)N3CCCC3)cc21)N1CCN(c2ncccn2)CC1 | 0.971 | -0.814
COc1cc(NC(=O)C2CCN(S(=O)(=O)c3cccc4cccnc34)CC2)cc(OC)c1 | 0.874 | -1.62
CC(=O)N1c2ccc(S(=O)(=O)N(CC(C)C)CC(C)C)cc2CC1C (stereo not drawn) | 1.43 | 1.74
Cc1ccc(S(=O)(=O)C2(C(=O)Nc3ccc(C)cc3Cl)CC2)cc1 | 1.13 | 4.88
COc1ccccc1OCc1nc(C#N)c(N(C)C)o1 | 0.952 | -1.37
COc1ccc(CNC(=O)C(C)C2Sc3ccccc3N(Cc3ccc(F)cc3Cl)C2=O)cc1 (stereo not drawn) | 0.9 | -1.37
Cc1ccc2c(c1)-c1c(cnn1CC(=O)N1CCN(Cc3ccccc3)CC1)CO2 | 0.937 | -1.67
CCn1c(=N)n(CC(O)COc2cccc(C)c2)c2ccccc21 (stereo not drawn) | 0.983 | -0.251
COc1ccc(-c2nc(CSCC(=O)NCc3ccccc3OC)c(C)o2)cc1 | 0.934 | -1.64
COc1ccc(NC(=O)c2cc(-c3ccc4c(c3)OCO4)on2)cc1 | 1.26 | 2.02
COc1ccc(OC)c(CNC(=O)Cc2c(C(=O)O)[nH]c3ccccc23)c1 | 1.07 | 1.94
COc1ccc(Cl)cc1-c1nc(-c2ccc(NC(=O)c3cccs3)cc2)no1 | 0.972 | -0.281

Sorted by the number under CBX7 AlphaScr z-score (smallest number first): 3 from the list above.
SMILES	CBX7 AlphaScr z-score
COc1cc(NC(=O)C2CCN(S(=O)(=O)c3cccc4cccnc34)CC2)cc(OC)c1	-1.62
COc1ccc(Cl)cc1-c1nc(-c2ccc(NC(=O)c3cccs3)cc2)no1	-0.281
Cc1ccc(S(=O)(=O)C2(C(=O)Nc3ccc(C)cc3Cl)CC2)cc1	4.88

(further entries)
SMILES | CBX7 AlphaScr | CBX7 AlphaScr z-score
CCc1ccc(NC(=O)Cn2c(C(=O)OC)cc3sc(Cl)cc32)cc1 | 1.06 | 1.76
CN(C(=O)Cc1c(C(=O)O)[nH]c2ccccc12)c1ccccc1 | 1.14 | 3.05
O=C(c1ccc2c(c1)N(Cc1cccc(F)c1)C(=O)c1ccccc1S2)N1CCOCC1 | 0.932 | -1.91
COCCNC(=O)CCCn1ncc2ccccc21 | 1.01 | 0.608
CCCN(CCC)C(=O)c1c[nH]c2ccc(S(=O)(=O)Nc3ccc(F)cc3F)cc2c1=O | 0.886 | -1.43
Brc1ccc(-c2nnc3sc(CN4CCCCCC4)cn23)cc1 | 1.06 | 0.816
O=C1CN(C(=O)Cc2cccc3ccccc23)C(c2ccc(F)cc2)c2cc(Cl)ccc2N1 (stereo not drawn) | 1.04 | 0.168
Brc1cccc(-c2nnc3sc(CN4CCOCC4)cn23)c1 | 0.854 | -1.89
O=C(NC1CCCC1)C1CCC(=O)N1Cc1ccc(F)cc1 (stereo not drawn) | 1 | 0.103
CC1CCC(NC(=O)c2cc3c(s2)CS(=O)(=O)C3)CC1 (stereo not drawn) | 0.994 | -0.175
Cc1ccccc1OCc1nc(C#N)c(NCCCn2ccnc2)o1 | 0.886 | -4.97
Cc1cc(C)c(NC(=O)C2CCN(S(=O)(=O)c3cccs3)CC2)c(C)c1 | 1.17 | 1.26
Cc1cc(C)nc(Sc2ccc3nnc(C(F)(F)C(F)(F)C(F)(F)F)n3n2)n1 | 1.01 | 0.402
CCCc1cc(C(=O)Nc2ccc3c(c2)OCO3)no1 | 1.04 | 0.0505
Cn1nccc1C(=O)NC(=S)Nc1cc(Cl)cc(Cl)c1 | 1.05 | 1.36
COc1ccc(Cl)cc1NC(=O)C(CCS(C)(=O)=O)NC(C)=O (stereo not drawn) | 1.04 | 1.77
COc1ccccc1Cc1nc(-c2ccc(OCC(N)=O)cc2)no1 | 0.882 | -1.49
CCOc1ccccc1NC(=O)COc1cc(C)ccc1C(C)(C)C | 0.961 | -0.0892
CCOC(=O)CNC(c1ccccc1)c1cc(Br)ccc1NC(=O)c1cccc(Cl)c1 (stereo not drawn) | 0.884 | -0.505
O=C1C2C3C=CC(C3)C2C(=O)N1c1c[nH]c(=O)[nH]c1=O (stereo not drawn) | 1.02 | 0.242
CCN1CCN(C(=O)C2CCN(C(=O)c3cnn(-c4ccccc4)c3-n3cccc3)CC2)CC1 | 1.07 | 2.84
O=C(Nc1ccccc1Cl)c1cc2c(s1)-c1ccccc1OC2 | 1.3 | 7.21
O=C(O)c1cc(N2C(=O)C3C4C=CC(C4)C3C2=O)ccc1Cl (stereo not drawn) | 0.838 | -2.09
CCC1Oc2ccc(Cl)cc2N(CC(=O)NCc2ccc(OC)cc2OC)C1=O (stereo not drawn) | 0.679 | -5.55

Part of the list above in order of count of non-hydrogen atoms, lowest first:
SMILES | CBX7 AlphaScr | CBX7 AlphaScr z-score
COc1ccc(Cl)cc1NC(=O)C(CCS(C)(=O)=O)NC(C)=O (stereo not drawn) | 1.04 | 1.77
Fc1ccc(-c2nnc3ccc(N4CCN(c5ccccc5)CC4)nn23)cc1 | 0.862 | -1.94
O=C(CN1C(=O)COc2ccc(S(=O)(=O)N3CCCC3)cc21)N1CCN(c2ncccn2)CC1 | 0.971 | -0.814

Further results
SMILES | CBX7 AlphaScr | CBX7 AlphaScr z-score
COc1ccc(-c2cc(C(F)(F)F)n3nc(C(=O)NCc4ccccc4)c(Cl)c3n2)cc1 | 1.07 | 0.446
CCCCOc1ccc(C(=O)Nc2ccc(S(=O)(=O)Nc3ncccn3)cc2)cc1 | 1.03 | 0.104
COc1ccc(CCNC(=O)c2ccc3nc(-c4cccs4)c(-c4cccs4)nc3c2)cc1OC | 1.13 | 0.13
Cc1ccc(-c2nnc(N3CCOCC3)c3ccccc23)cc1S(=O)(=O)NC(C)(C)CO | 1.07 | 0.684
Cc1cc(Cl)ccc1-n1c(CCC(=O)O)ccc1-c1cccs1 | 0.874 | -2.18
O=[N+]([O-])c1ccc(S(=O)(=O)NC2CCCCCC2)cc1 | 1.11 | 2.17
COc1cc(NC(=O)CCc2c(C)nc3ncnn3c2C)cc(OC)c1 | 1.02 | 0.346
Cc1cccc(Nc2nc3nonc3nc2N2CCC(Cc3ccccc3)CC2)c1C | 0.832 | -1.99
COCCCNC(=O)C1CCCN(c2nnc(-n3cccc3)s2)C1 (stereo not drawn) | 1 | 0.0292
O=C(NC1CCCC1)C1C2C=CC3(CN(Cc4cccs4)C(=O)C13)O2 (stereo not drawn) | 1.02 | 0.231
Cc1ccc(C)c(N2CCN(C(=O)CCN3C(=O)COc4ccccc43)CC2)c1 | 0.971 | -0.885
Cc1c(Cl)cccc1NS(=O)(=O)c1ccc2[nH]cc(C(=O)NC3CCCC3)c(=O)c2c1 | 1.05 | 1

Brought forward from above: 3 entries, then new ones.
SMILES | CBX7 AlphaScr | CBX7 AlphaScr z-score
O=C(NC1CCCC1)C1C2C=CC3(CN(Cc4cccs4)C(=O)C13)O2 (stereo not drawn) | 1.02 | 0.231
Cc1ccc(C)c(N2CCN(C(=O)CCN3C(=O)COc4ccccc43)CC2)c1 | 0.971 | -0.885
Cc1c(Cl)cccc1NS(=O)(=O)c1ccc2[nH]cc(C(=O)NC3CCCC3)c(=O)c2c1 | 1.05 | 1
COc1ccc(Nc2ncc(C(=O)N3CCC(C(N)=O)CC3)c3ccccc23)cc1 | 1.02 | 0.259
O=C(NCCc1ccccc1)c1cc2n(n1)C(C(F)(F)F)CC(c1cccs1)N2 (stereo not drawn) | 1.05 | 0.912
CCOC(=O)N1CCN(c2c(NC3CCCCC3)c(=O)c2=O)CC1 | 0.966 | -0.964
C=CCc1ccc(Oc2ncnc3sc(C)c(C)c23)c(OC)c1 | 1.12 | 0.249
COC(=O)c1cccc(NC(=O)COc2ccc(C(C)(C)C)cc2)c1 | 1.02 | 0.725
CCCCn1c(CCCNC(C)=O)nc2ccccc21 | 1.26 | 2.68
CCOC(=O)N1CCN(C(=O)Cn2cnc3c(nnn3Cc3ccc(F)cc3)c2=O)CC1 | 0.824 | -2.89
Cc1ccc(S(=O)(=O)NCc2cc(-c3nn(C)c(=O)c4ccccc34)ccc2C)cc1 | 0.907 | -1.01
Cc1cccc(C(=O)N(Cc2nc(-c3ccc(Cl)cc3)no2)C(C)C)c1 | 1.09 | 1.37
Cc1cc(C)cc(NC(=O)CSc2nnc(Cc3cc(=O)[nH]c(=O)[nH]3)n2-c2ccc(F)cc2)c1 | 1 | 0.0671
CC(C)COc1ccc(C2(C)NC(=O)N(C)C2=O)cc1 (stereo not drawn) | 0.983 | -0.462
Cc1cc(OCc2nc(-c3ccncc3)no2)ccc1Cl | 1.16 | 1.15
Cc1ccc(CN2C(=O)CCC2C(=O)NCCCN2CCN(C)CC2)cc1 (stereo not drawn) | 0.988 | -0.235
COc1ccc(CCNC(=O)c2cc(Sc3nnc(C)s3)nc3ccccc23)cc1OC | 1.12 | 1.98
COc1cc2c(cc1OC)C(C(=O)NCc1cccs1)C1c3ccccc3CCN1C2=O (stereo not drawn) | 1.05 | 1.35
C#CCOc1ccc(-c2nnc(Nc3ccc(NC(C)=O)cc3)c3ccccc23)cc1 | 1.03 | 0.129
O=C(NCc1ccccc1)c1cc(=O)[nH]c2ccc(S(=O)(=O)N3CCCC3)cc12 | 0.947 | -0.594
COc1ccc(NC(=O)C2CC(c3ccc(F)cc3)=NO2)cc1 (stereo not drawn) | 1.04 | 1.83
COc1cccc(C(=O)Nc2c3c(nn2-c2ccc(F)cc2)CSC3)c1 | 0.925 | -1.31
C=C(C)Cn1c(C2CC(=O)N(c3cc(Cl)ccc3OC)C2)nc2ccccc21 (stereo not drawn) | 1.05 | 0.333
CCCCOc1cccc(CN2CCCCC2c2cccnc2)c1 (stereo not drawn) | 0.67 | -4.37
O=C(Nc1cccc(F)c1)[C@H](Cc1ccccc1)N1Cc2ccccc2C1=O | 1.02 | 0.599
COCCNC(=O)CN1N=C(c2ccc(Cl)cc2)CCC1=O | 1.03 | 0.395
Cc1noc(C)c1S(=O)(=O)N(CC(=O)NC1CCCC1)c1ccc(C(C)C)cc1 | 0.756 | -0.985
CCN1CCN(c2nc(-c3ccncc3)nc3ccccc23)CC1 | 0.993 | -0.173
Cc1ccc(-c2nc(CSCC(=O)NC3CCC(C)CC3)c(C)o2)cc1 (stereo not drawn) | 0.988 | -0.229
O=C(O)c1ccc(-n2nnnc2SCc2cccc(Br)c2)cc1 | 0.881 | -1.14
COc1ccc(CNC(=O)c2cc(C(C)C)on2)cc1 | 0.823 | -2.11
Cc1oc(-c2cccc(Br)c2)nc1CN1CCC(C(=O)NCCc2ccc(Cl)cc2)CC1 | 1.03 | 0.42
Cc1cccc(Nc2cc(C)nc3ncnn23)c1 | 1.04 | 1.61
O=C(CCN1N=C(c2ccccc2)CCC1=O)NCC1CCCO1 (stereo not drawn) | 1.13 | 0.265
CCOC(=O)c1sc2ncn(CC(=O)Nc3ccccc3Cl)c(=O)c2c1C | 1.04 | 1.95
Cc1onc(-c2ccccc2Cl)c1C(=O)N1CCC(C)CC1 | 1.05 | 1.05
O=C(Nc1cccc(Cl)c1)N(Cc1nnc2n1CCCCC2)c1ccc(F)cc1 | 1.08 | 1.22
CCOCC(=O)Nc1c(C(=O)Nc2ccccc2F)oc2ccccc12 | 1.1 | 2.79
COC(=O)CNC(=O)c1sc2ncn(CC(=O)Nc3cccc(C(F)(F)F)c3)c(=O)c2c1C | 1.09 | 0.873
COc1ccc(-c2cc(C(F)(F)F)nc(NCc3cccs3)n2)cc1 | 1.28 | 11.3
CCN(CC)C(=O)c1cc2c(n(-c3ccc(Cl)cc3)c1=O)CC(C)(C)CC2=O | 1.09 | 2.38
COCCNCC1C(Oc2ccc(Cl)cc2)C(=O)N1c1ccccc1C (stereo not drawn) | 1.16 | 1.87
O=C(Nc1cccc(F)c1)c1cccc(S(=O)(=O)N2CCCCC2)c1 | 1.17 | 2.71
Cc1cccc(OCC(=O)Nc2cc(-c3nc4ncccc4o3)ccc2Cl)c1 | 1.04 | 1.63
COC(=O)c1c(C)[nH]c(C)c1-c1ccccc1Cl | 0.68 | -6.34
Cc1cc(Nc2cccc(C(=O)O)c2)n2ncnc2n1 | 1.01 | 0.14
O=C(Nc1ccccc1Cl)c1csc2c1CCCC2 | 1.12 | 2.86
